From PubChem
Cruzain inh Det – inhibitors of Trypanosoma cruzi cruzain with detergent; purified cruzain, Z-FR-AMC fluorescence, 0.01% Triton; Potency, µM, without a hit: max response, negative = inhibition, actives largely listed as inhibitors; actives 0.43% (n = 200,000); active = well fitted curve in the direction sought with a large enough effect; inconclusive = small, poorly fitted or top-dose-only effect, or another doubt; inactive = no such curve, though single readings can be large; an effect the other way counts as inactive or inconclusive;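 note: plate controls were neutral wells for no effect and buffer without enzyme for full effect; nearly all actives have a fitted effect of over 40% in size; top concentration of the series not given in the record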
Target sequence (P25779 123-467 limits assumed): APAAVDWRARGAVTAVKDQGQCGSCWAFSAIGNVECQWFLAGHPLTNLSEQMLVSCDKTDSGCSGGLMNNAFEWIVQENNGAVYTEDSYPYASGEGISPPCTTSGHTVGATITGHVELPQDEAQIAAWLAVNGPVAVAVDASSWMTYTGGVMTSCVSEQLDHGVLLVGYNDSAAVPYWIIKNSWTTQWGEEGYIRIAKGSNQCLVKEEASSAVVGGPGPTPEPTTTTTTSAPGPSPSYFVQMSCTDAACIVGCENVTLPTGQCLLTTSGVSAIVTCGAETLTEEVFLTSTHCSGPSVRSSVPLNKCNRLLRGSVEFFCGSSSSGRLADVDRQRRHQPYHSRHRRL
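Detergent-containing arm of a paired screen for aggregation-based inhibition: 0.01% Triton X-100 present. Cruzain at 1.5 nM cleaved 2 uM Z-FR-AMC at pH 5.5 with 5 mM DTT; AMC fluorescence gain over 60 s measured activity.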
Lassa entry inh – blocks Lassa virus binding to or entry into cells; Lassa virus pseudotype entry inhibition, cell reporter; control for the full effect not named in the record; Potency, µM (top dose mostly 37.9 µM), inactives show at the highest dose activity change, negative = inhibition, actives largely listed as inhibitors; actives 1.2% (n = 300,000); AID 540256; active means well fitted inhibition curve with a large enough effect; inconclusive means small, poorly fitted or top-dose-only effect, or effect the other way; inactive means flat fitted curve, though single readings scatter; tested in HEK293 cells; note: % is set by controls: 0 for no effect and ±100 for the full control effect; nearly all actives have a fitted effect of over 50% in size; luciferase read-out
NS1 inh – inhibitors of influenza NS1 protein function; Potency, µM (series often up to 46.1 µM), for the others: top-dose activity, positive = more growth; S. cerevisiae slowed by influenza A NS1, growth recovery by OD600; actives 0.4% (n = 270,000); AID 2326; note: actives are rising curves; nearly all actives have a fitted effect of over 50% in size
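Compounds were scored for reversing the slow growth caused by influenza A NS1 in S. cerevisiae, measured by optical density at 600 nm. Assay medium contained 2% galactose at pH 6.0; NS1-free yeast of the same strain were the positive control.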
MARV entry inh – blocks Marburg virus binding to or entry into cells | Marburg virus pseudotyped entry inhibition, cell reporter; control for the full effect not named in the record; about a third of the inactives were read at about 46 µM | Potency, µM (top dose mostly 37.8 µM), inactives show top-dose activity change, negative = inhibition, usual class: inhibitors | actives 1.8% (n = 300,000); active = well fitted inhibition curve with a large enough effect; inconclusive = small, poorly fitted or top-dose-only effect, or effect the other way; inactive = flat fitted curve, though single readings scatter; tested in HEK293 cells; about a fifth of its hits are not listed in these tables; note: % is set by controls: 0 for no effect and ±100 for the full control effect; luciferase read-out
RE007 growth inh – less growth of the S. pombe RE007 Vpr strain; S. pombe RE007 Vpr strain, BacTiter-Glo ATP luminescence, 24 h; control for the full effect not named in the record; Potency, µM (titrated, usually from 92.2 µM), inactives show at the top dose activity change, negative = less growth; AID 651644; actives 0.21% (n = 360,000); active = well fitted falling curve with a large enough effect; inconclusive = small, poorly fitted or top-dose-only effect; inactive = no such curve, though single readings can be large or run the other way;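 note: % is set by controls: 0 for no effect and ±100 for the full control effect; nearly all actives have a fitted effect of over 50% in size; the assay follows cell death caused by Vpr and the record does not say whether a fall means rescue or toxicity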
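Fission yeast RE007 carrying one integrated HIV-1 vpr copy, seeded at OD 0.01 in PMG+AL medium with 23 nL pinned compound. Grown 24 h at 30 degrees; viability read by BacTiter-Glo luminescence after 5 min.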
SARS PLP yeast – blocks SARS-CoV papain-like protease in a yeast assay | Potency, µM (titrated, usually from 32.9 µM), for the others: at the highest dose activity, positive = growth rescue | actives 0.19% (n = 330,000) | S. cerevisiae expressing SARS-CoV PLpro, growth rescue; control for the full effect not named in the record | AID 485353; note: 0% is about no effect; nearly all actives have a fitted effect of over 55% in size; growth read by luminescence after 48 h
StopGo reporter – FMDV 2A StopGo reporter, luciferase signal | Potency, µM (series often up to 57.9 µM), for the others: at the highest dose signal change, negative = less light | actives 1.2% (n = 410,000) | human cells with a luciferase reporter of 2A StopGo recoding; control for the full effect not named in the record; active = well fitted falling curve with a large enough effect; inconclusive = small, poorly fitted or top-dose-only effect; inactive = no such curve, though single readings can be large or run the other way; tested in HEK293T cells; note: % is set by controls: 0 for no effect and ±100 for the full control effect; nearly all actives have a fitted effect of over 45% in size; luciferase light after 4 h
Cruzain noTriton – cruzain (T. cruzi) inhibition without detergent; P25779; purified cruzain, Z-FR-AMC fluorescence, no detergent; Potency, µM, without a hit: max response, negative = inhibition, actives largely listed as inhibitors; actives 2.3% (n = 200,000); AID 1476; active = well fitted curve in the direction sought with a large enough effect; inconclusive = small, poorly fitted or top-dose-only effect, or another doubt; inactive = no such curve, though single readings can be large; an effect the other way counts as inactive or inconclusive;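 note: plate controls were enzyme without inhibitor for no effect and buffer without enzyme for full effect; nearly all actives have a fitted effect of over 40% in size; top concentration of the series not given in the record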
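Detergent-free condition (0.00005% Triton X-100) in acetate buffer pH 5.5 with DTT. 1.5 nM enzyme and compound were pre-mixed 15 min, then 2 uM Z-FR-AMC substrate added; reaction progress from fluorescence change between first and third reads (60 s).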
* = called active by the depositor; ? = inconclusive; nt = no result given; & = joins results of further samples; [ ] = dose if it differs, or a comment. Unless noted, calls come from the whole dose curve; as a rule, active means well fitted rising curve with a large enough effect; inconclusive means small, poorly fitted or top-dose-only effect; inactive means no such curve, though single readings can be large or run the other way. Potency is the fitted concentration of half-maximal effect.

Structure	StopGo reporter	SARS PLP yeast	Lassa entry inh	Cruzain noTriton	MARV entry inh	NS1 inh	Cruzain inh Det	RE007 growth inh
COCCNC(=O)/C(C#N)=C/c1cccs1	21%	0%	2%	nt	6%[46.1 µM]	2%	nt	-12%
CC(=O)Cc1nsc(NC(=O)c2ccc(COc3cccc(C)c3)o2)n1	-6%	-5%	13%[46.1 µM]	nt	-1%[46.1 µM]	-12%	nt	-3%
Cc1ccc(NC(=O)CSc2nccn2C2CCCC2)cc1	38%[activator]	nt	5%[46.1 µM]	-4%	nt	nt	0.5%	nt
CCC(C)Nc1nc2c(c(=O)[nH]c(=O)n2C)n1Cc1ccc(F)cc1 (configuration not stated)	-13%	nt	-14%[46.1 µM]	1%	-1%[46.1 µM]	nt	-2.9%	nt
Cc1ccc(-c2nc(CS(=O)CC(=O)NCCN3CCCC3)c(C)o2)cc1 (configuration not stated)	-1%	14%	nt	-10%	-1%	?	-0.3%	-16%
NS(=O)(=O)c1ccc(NC(=O)CN2CCCc3ccccc32)cc1	19%	-2%	0%[46.1 µM]	nt	?	0%	nt	0%
O=c1c(F)cn(C2CCCO2)c(=O)n1Cc1ccccc1Cl (configuration not stated)	-5%	?	-20%[14.3 µM]	-7%	2%	10%	11%	-9%
CCOC(=O)C1CCCN(Cc2cn[nH]c2-c2ccc(F)cc2F)C1 (configuration not stated)	-8%	1%	12%	nt	?	-1%	nt	0%
c1ccc(-c2nn3c(C4CCCCC4)nnc3s2)cc1	8%	-7%	-5%	?	1%	-6%	-0.8%	-1%
O=C(NCc1ccccc1)c1ccc(CS(=O)(=O)c2ccccc2)o1	?	-1%	-5%	2%	?	-1%	1.8%	19%
Cc1ccc(-n2nc3c(=O)n(CC(=O)NCCc4ccc(Cl)cc4)nc(C)c3c2C)cc1	?	-2%	nt	nt	nt	12%	nt	2%
CCOC(=O)c1ccc(N2CCN(c3ccccc3F)CC2)c(NC(=O)Nc2ccccc2)c1	-13%	29%	?	?	?	?	-2.7%	-4%
O=C(Nc1ccccc1N1CCCC1)C1CCN(S(=O)(=O)c2cccc(C(F)(F)F)c2)CC1	-16%	-5%	-29%	nt	?	nt	nt	5%
COc1ccc(NC(=O)c2c(NC(=O)CNCC(C)C)sc3c2CCC3)c(OC)c1	-30%	-1%	?	nt	?	9%	nt	1%
Cc1cc(NC(=O)CC2CCCC2)n(-c2nc3ccccc3[nH]2)n1	-27%	-2%	?	-12%	?	-15%	-7.1%	-7%
COc1ccc(CCNc2ncnc3c2c(C)c(C)n3CCCN(C)C)cc1OC	-10%	0%	19%[46.1 µM]	nt	?	0%	nt	-23%
COc1ccc(CCNc2oc(COc3cccc(C)c3)nc2C#N)cc1OC	-56%	nt	?	0%	?	nt	-2.3%	nt
CCN(CC)C(=O)Cn1cc(C(=O)C(=O)N2CCc3ccccc32)c2ccccc21	12%	-5%	-10%	nt	?	nt	nt	14%
Cc1ccc(NC(=O)c2noc3c2CC(C(C)(C)C)CC3)cc1 (configuration not stated)	-17%	1%	1%	13µM*	?	-4%	4.5%	13%
O=C(N/N=C/c1ccncc1)c1nc2ccccc2c(=O)[nH]1	35%[activator]	1%	nt	nt	nt	0%	nt	1%
O=C1C=C(Nc2ccc(F)cc2)c2ccccc2C1=O	?	-1%	?	nt	?	nt	nt	-11%
FC(F)Sc1ccc(NC(=S)NC2CCCCC2)cc1	44%[activator]	-16%	-3%	7%	-1%	-141%	-8.8%	-18%
S=C1NC(c2ccccc2)N2C(=S)NC(c3ccccc3)N12 (configuration not stated)	30%	2%	2%	-1%	11%	3%	-1.8%	-2%
O=C(COC(=O)COc1ccccc1)Nc1ncc([N+](=O)[O-])s1	13%	3%	6%	nt	?	nt	nt	2%
Cn1c(=O)c(=O)n(C)c2cc(N3CCCCC3)c(NS(=O)(=O)c3ccc([N+](=O)[O-])cc3)cc21	5%	3%	nt	nt	nt	0%	nt	0%
O=C(Nc1cccc([N+](=O)[O-])c1)Nc1cnccn1	15%	5%	nt	nt	nt	2%	nt	-16%
N#CC(=C(c1ccccc1)c1ccccc1)c1ccccc1	0%	nt	11%[46.1 µM]	nt	-2%	nt	nt	-8%
CC1=C(C(=O)Nc2ccccc2)C(c2cccs2)n2nc(SCc3ccccc3)nc2N1 (configuration not stated)	-14%	nt	19%[46.1 µM]	?	6%[46.1 µM]	nt	-0.6%	nt
CCCN1C(=O)/C(=C2/C=Cc3ccccc3N2CC)SC1=S	-14%	-13%	2%[46.1 µM]	nt	?	nt	nt	-12%
CCOc1ccc(OCCC(=O)OCC(=O)Nc2ccc3c(c2)OCCO3)cc1	-14%	nt	8%	nt	4%[46.1 µM]	nt	nt	2%
Cn1c(CNC(=O)c2ccco2)nnc1SCC(=O)c1ccccc1	-4%	1%	-6%[46.1 µM]	nt	-23%[46.1 µM]	5%	nt	-4%
O=C(Nc1nnc(COc2ccc(F)cc2)s1)c1cccs1	-2%	-1%	-8%	25µM*	0%[46.1 µM]	3%	-1.2%	-15%
COc1cc(C(=O)/C=C/Nc2ccc(NC(C)=O)cc2)cc(OC)c1OC	-27%	-29%	?	12%	?	12%	-11%	5%
COc1ccc(C(=O)NCC(c2cccnc2)N2CCN(c3ccccc3OC)CC2)cc1OC (configuration not stated)	?	4%	nt	12%	-3%	-2%	-1.3%	-1%
CCOc1ccc(NC(=O)c2ccc(-c3csc(C)n3)cc2)cc1	-20%	1%	5%	nt	7%	?	nt	-6%
Cc1ccc(CNS(=O)(=O)NCc2ccc(Cl)cc2)cc1	12%	0%	nt	nt	nt	-1%	nt	-1%
CC(C)c1ccc(NC(=O)CCCc2nc(-c3ccc(Cl)cc3)no2)cc1	-25%	nt	0%[46.1 µM]	-8%	14%[46.1 µM]	nt	-1.6%	nt
O=C1C(=O)N(CCN2CCOCC2)C(c2cccc(Cl)c2)/C1=C(\O)c1ccc2c(c1)OCCO2 (configuration not stated)	-15%	-2%	nt	nt	nt	3%	nt	7%
CN(Cc1ccccc1)c1ccc(C(CC(N)=O)NC(=O)Cc2cccc3ccccc23)cc1[N+](=O)[O-] (configuration not stated)	-2%	-1%	nt	nt	nt	?	nt	-6%
COc1cc(Cl)c(C)cc1NC(=O)c1cnn(-c2ccc(F)cc2F)c1C1CCN(C(=O)OC(C)(C)C)CC1	-3%	nt	?	-25%	nt	nt	-9.2%	nt
Cc1nn(-c2ccccc2)c2sc(C(=O)OCC(=O)N3CCCCC3)cc12	-13%	3%	8%	?	-1%	-31%	2.6%	-8%
COC(=O)Cc1c(C)[nH]n(-c2cc(Cl)cc(Cl)c2)c1=O	-22%	-6%	-2%	nt	-2%[46.1 µM]	1%	nt	4%
COc1ccc(Cl)cc1NC(=O)CN(C)C(=O)CCC(=O)c1cc(C)sc1C	-1%	-3%	?	nt	0%	nt	nt	-7%
COc1cc(CC(=O)Nc2nc(-c3ccccc3)c(C(C)=O)s2)cc(OC)c1OC	-26%	3%	?	nt	-13%	14%	nt	-18%
Cc1ccc(S(=O)(=O)CCN2CCN(c3ccccc3)CC2)cc1	-9%	1%	-9%	nt	7%&7%	-4%	nt	1%
CCN(CC)CC(=O)Nc1nn(-c2ccccc2)nc1C(N)=O	-23%	1%	8%	-7%	?	2%	0.7%	-3%
Cc1ccccc1N=Nc1c(C)[nH]n(-c2ccccc2)c1=O	20%	0%	3%	nt	15%[46.1 µM]	5%	nt	5%
CCCC1(c2ccccc2)NC(=O)N(CC(=O)Nc2ccccc2C(F)(F)F)C1=O (configuration not stated)	-9%	2%	-22%	nt	?	10%	nt	35%
Cc1cccc(-n2c(O)c(/C=N/Nc3nc4c(c(=O)n(C)c(=O)n4C)n3C)c(=O)[nH]c2=S)c1	-29%	13%	-3%	2%	?	3%	-5.4%	nt
CCCCNC(=O)c1onc(CCl)c1C(=O)OC	0%	-2%	nt	-4%	nt	1.1µM*	11%	-13%

(list continues)
Structure	StopGo reporter	SARS PLP yeast	Lassa entry inh	Cruzain noTriton	MARV entry inh	NS1 inh	Cruzain inh Det	RE007 growth inh
O=C(c1ccc2ccccc2c1)N1CCCC1	28%	2%	-1%	nt	-1%	-17%	nt	-6%
O=C(c1ccco1)N1CCN(C(c2ccccc2Cl)c2nnnn2Cc2cccs2)CC1 (configuration not stated)	-27%	-7%	?	5%	?	-5%	1.3%	-3%
CCCN(CC(=O)Nc1ccc(C(N)=O)cc1)CC(=O)Nc1cc(Cl)ccc1Cl	-18%	1%	-1%	nt	19%[46.1 µM]	-1%	nt	2%
CCc1cccc(NC(=O)CCc2c(C)nc3c(c2C)c(=O)n(C)c(=O)n3C)c1	?	nt	?	5%	2%[46.1 µM]	nt	1.9%	nt
Cn1c(SCc2cccc([N+](=O)[O-])c2)nc2ccccc2c1=O	20µM*	-22%	-19%	nt	?	nt	nt	38%
Cc1cnc(CN(C)Cc2c(C(=O)N3CCCCCCC3)nc3ccc(Cl)cn23)[nH]1	-10%	-2%	-2%	nt	-19%	-7%	nt	-8%
Cc1cccc(C)c1NC(=O)c1sccc1SCc1cccc(C(F)(F)F)c1	?	-13%	5%	1%	?	-7%	-6.1%	17%
COc1cccc2sc(NC(=O)c3ccc(S(=O)(=O)N4CCOCC4)cc3)nc12	nt	0%	?	?	-13%	12%	-5.2%	8%
COc1ccc(S(=O)(=O)N(CC(=O)O)Cc2ccccc2)cc1OC	0%	8%	7%	-5%	9%	-6%	8.5%	7%
